RecA intein inh = Mtb RecA intein splicing inhibitors, primary screen, biochemical, fluorescence, HTS. Protein RecA (Mycobacterium tuberculosis (strain ATCC 25618 / H37Rv)), P9WHJ3. cell-free RecA intein splicing. inhibition, %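 (about 9 µM by stock and volumes)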. 290,000 compounds, 0.75% hits. AID 2221, 2009; in the data active means inhibition above about 30%; inconclusive means no clear call, values can overlap the other calls;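 further: 0% = vehicle wells and 100% = reference inhibitor control wells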
Target sequence (P9WHJ3 whole entry, looked up): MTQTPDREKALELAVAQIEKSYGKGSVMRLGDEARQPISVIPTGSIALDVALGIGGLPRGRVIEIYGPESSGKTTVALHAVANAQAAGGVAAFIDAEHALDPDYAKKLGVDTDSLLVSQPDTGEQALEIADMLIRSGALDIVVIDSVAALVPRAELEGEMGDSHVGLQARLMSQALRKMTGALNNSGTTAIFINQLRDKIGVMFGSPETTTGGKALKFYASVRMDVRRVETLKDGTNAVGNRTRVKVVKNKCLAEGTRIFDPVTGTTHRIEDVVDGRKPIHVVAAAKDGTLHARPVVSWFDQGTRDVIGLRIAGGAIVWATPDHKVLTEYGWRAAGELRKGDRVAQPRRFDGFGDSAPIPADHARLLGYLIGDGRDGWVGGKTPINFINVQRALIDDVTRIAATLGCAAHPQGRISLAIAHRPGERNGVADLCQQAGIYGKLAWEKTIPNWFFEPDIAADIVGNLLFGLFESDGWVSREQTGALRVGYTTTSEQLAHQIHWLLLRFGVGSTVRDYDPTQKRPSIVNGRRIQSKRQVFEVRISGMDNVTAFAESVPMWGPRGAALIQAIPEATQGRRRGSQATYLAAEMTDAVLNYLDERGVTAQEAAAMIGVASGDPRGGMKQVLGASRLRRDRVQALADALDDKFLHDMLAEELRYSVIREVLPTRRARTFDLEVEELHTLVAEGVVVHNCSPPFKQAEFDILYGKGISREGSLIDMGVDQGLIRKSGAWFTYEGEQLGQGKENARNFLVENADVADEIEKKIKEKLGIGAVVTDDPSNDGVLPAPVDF
Arbovirus inh = antivirals against arbovirus infection, primary screen, cell-based, full library, 10K replicate subset; arbovirus infection cell-based antiviral screen; inhibition, % at 10 µM; 200,000 compounds, 0.37% hits; AID 1251, 2008;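 active means inhibition from about 30%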;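 further: bluetongue infection of BSR cells; cell survival read as ATP light after 72 h; 0% = infected wells without compound and 100% = uninfected wells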
Mtb betalactam = beta-lactam sensitization of Mtb H37Rv, H37Rv; M. tuberculosis H37Rv growth with meropenem, percent inhibition; hits of this screen are not shown here; AID 434955, 2010; inhibition, % at 25 µM; 330,000 compounds, 0.27% hits;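 active means about 74% or more and at least 40 points above the plate without the antibiotic, then above 30% in a dose series; inconclusive means first-round hits that could not be retested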;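 further: growth measured after seven days incubation then overnight dye step; 0% = bacteria only wells and 100% = bacteria with antibiotic; twin plates without the antibiotic show which effects depend on it; some results filed as inactive read as strong as hits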
YopH PTP inh = YopH tyrosine phosphatase inhibitors, primary screen, biochemical, fluorescence Ex485/Em525; YopH tyrosine phosphatase [Yersinia enterocolitica]; inhibition, %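 (about 10 µM by stock and volumes)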; 140,000 compounds, 0.16% hits;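 active means inhibition of 50% or more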;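 further: controls were vehicle for no effect and minimum signal wells for full effect; inactives centre near -20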
Mtb H37Rv = M. tuberculosis H37Rv growth inhibitors, H37Rv strain (AID 1626). M. tuberculosis H37Rv growth inhibition; higher % means a stronger effect. inhibition, % at 10 µM; hits with a dose series show IC50 in µM. 220,000 compounds, 0.95% hits;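 active means confirmed in a dose series; inconclusive means inhibition above 80% but not taken into the dose series; inactive means below 80% or under 30% at every dose of the series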;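 further: bacteria incubated seven days before Alamar blue readout; 0% = bacteria only wells and 100% = bacteria with antibiotic wells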
Arbovirus inh repeat = also measured in Arbovirus inh; calls as there; inhibition, %; measured here: 10K subset replicate screen; many hits read low in the repeat;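 first of two repeat runs on a subset; 0% = infected and 100% = uninfected wells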
Numbers without * were called inactive; u = inconclusive; x = no result given.

SMILES	RecA intein inh	Arbovirus inh	Mtb betalactam	YopH PTP inh	Mtb H37Rv	others
CC(=O)Nc1cc[n+](CC(=O)c2ccc(Cl)cc2)cc1	x	x	-2	x	-12%
Cn1ccnc1SCC(=O)Nc1cc(S(=O)(=O)N2CCOCC2)ccc1Cl	0.5	6	-7	-36	-7%
CCC1Nc2ncnc(N3CCN(c4ccccc4)CC3)c2N(Cc2ccc(C)cc2)C1=O (stereo not drawn)	8.4	x	70	x	x
COc1cc(/C=N/NC(=O)c2cnccn2)ccc1O	-3.0	-4	3	-48	-1%
Cc1nc2ccccn2c1C(=O)CSc1ccc(Cl)cc1Cl	-1.6	-1	-7	-33	-3%
N#Cc1ccc2ccn(CC(=O)NC3CCCCC3)c2c1	0.3	0	-2	-21	-1%
COc1ccccc1-c1nnc(SCC(=O)N2CCOCC2)n1-c1ccccc1	-3.9	2	-9	-137	1%
c1ccc(CCn2nnnc2C(c2cccs2)N2CCN(Cc3ccc4c(c3)OCO4)CC2)cc1 (stereo not drawn)	5.1	9	-11	-16	22%
Cc1ccnc(N2CCC(C(=O)Nc3ccc4c(c3)OCO4)CC2)n1	x	-1	-7	-11	3%
COc1ccc(S(=O)(=O)Nc2ccc3ccccc3c2)cc1C	9.2	-35	-18	6	5%
CC(=O)N1N=C(c2ccccc2)OC1(C)CC(=O)Nc1ccccc1 (stereo not drawn)	1.8	-4	-3	-13	-2%
N#CC(C(=O)O)=C1CCCC1	1.2	2	-1	-20	1%
Cc1c(NC(=O)/C=C/c2cccs2)c(=O)n(-c2ccccc2)n1C	-0.1	10	-4	-20	-4%
CCOc1ccc(/C=C/C(=O)c2ccc(-c3ccccc3)cc2)cc1	6.1	-1	2	-26	12%
Cc1ccc(NC(=O)C2(S(=O)(=O)c3ccc(C)cc3)CC2)cc1	1.7	2	-5	-14	3%
O=C(COC(=O)c1ccc(S(=O)(=O)Nc2ccccc2)cc1)NCCC1=CCCCC1	6.2	-2	1	-17	4%
CC(NC(=O)c1ccc(S(C)(=O)=O)cc1)c1cccc2ccccc12 (stereo not drawn)	0.9	x	13	x	x
CCOC(=O)c1c(NC(=O)N/N=C/c2ccc(O)c(OC)c2)sc(C(C)=O)c1C	-0.5	x	-10	x	0%
COc1ccc(C(=O)n2cnc(N)n2)cc1	9.2	5	-2	-51	-4%
CC(=O)Nc1ccc(NC(=O)CSc2ncc(C(=O)Nc3ccc(F)cc3)c(=O)n2C)cc1	32*	x	3	x	x
C/C(=N\Nc1ccc(Cl)c(C(=O)O)c1)c1ccc(Br)s1	0.3	x	9	x	x
COCCN(C(=O)CSc1ncccn1)c1c(N)n(Cc2ccccc2)c(=O)[nH]c1=O	3.9	x	-1	x	x
C[C@@H](NC(=O)[C@@H]1Cc2ccccc2CN1C(=O)OC(C)(C)C)C(=O)NC1CCCCC1	0.3	x	-3	x	x
O=C(Nc1ccccc1)C1C2/C=C\CCCCC21 (stereo not drawn)	-0.3	2	2	x	-15%
O=C(Cc1ccc(Cl)cc1)NC(=S)Nc1ccccc1N1CCOCC1	x	26	-2	-19	1%

Brought forward from above: three entries, followed by the next part.
SMILES	RecA intein inh	Arbovirus inh	Mtb betalactam	YopH PTP inh	Mtb H37Rv	others
C[C@@H](NC(=O)[C@@H]1Cc2ccccc2CN1C(=O)OC(C)(C)C)C(=O)NC1CCCCC1	0.3	x	-3	x	x
O=C(Nc1ccccc1)C1C2/C=C\CCCCC21 (stereo not drawn)	-0.3	2	2	x	-15%
O=C(Cc1ccc(Cl)cc1)NC(=S)Nc1ccccc1N1CCOCC1	x	26	-2	-19	1%
Cc1ccc(C(=O)Oc2ccc(N3C(=O)CCC3=O)c(C)c2)cc1	-3.6	2	-3	x	1%
COc1ccc(/C=N/NC(=O)c2cc(-c3cccc(C)c3)nc3ccccc23)cc1O	8.5	x	-2	x	x
COc1ccccc1N1CCN(C(=O)Cn2c(=O)[nH]c3ccsc3c2=O)CC1	3.1	-3	-5	-10	-8%
CC(=O)OC(C(=O)NC1CCCCC1)c1ccc(Cl)cc1 (stereo not drawn)	-0.9	4	2	-1	-11%
CCOC(=O)N1CCN(C(=O)c2ccc3c(c2)NC(=O)/C(=C\c2cccc(C)c2)S3)CC1	-16	x	82	x	x
CNc1c(NS(=O)(=O)c2ccc(Cl)cc2)c(=O)oc2ccccc12	-2.5	x	2	x	x
O=C(NNC(=O)c1ccc(O)c(Cl)c1)c1cccc(S(=O)(=O)N2CCOCC2)c1	-3.1	x	-8	x	x
CC1CC(C)CN(CCCNC(=O)CN2C(=O)c3cccnc3Oc3ccccc32)C1 (stereo not drawn)	-2.2	x	u	x	x
Cc1ccc(C)c(NC(=O)Nn2cnnc2)c1	0.2	x	-3	x	x
O=C(O)CCC(=O)Nc1ccc(Br)c(Cl)c1	-3.5	8	-3	-13	2%
CCN(CC(=O)Nc1c(F)cccc1F)C(=O)c1cccnc1SC	0.6	x	-2	x	x
CSc1ccccc1C(=O)Nc1ccccc1C	2.6	0	28	x	-1%
Cc1cc(N2CCCC2=O)cc(C)c1S(N)(=O)=O	-1.2	4	1	13	-7%
O=C(NCc1cccs1)C1CCCN1C(=O)Nc1cccc(Cl)c1 (stereo not drawn)	2.5	3	-5	x	7%
CN(Cc1ccccc1)C(=O)CCn1c(=O)oc2ccccc21	-0.1	4	-3	-19	-2%	Arbovirus inh repeat=3
Cc1noc(C)c1S(=O)(=O)N1CCCC(C(=O)N2CCC(C)CC2)C1 (stereo not drawn)	1.3	1	-6	-40	-18%
CCN(CC)c1ccc(N2C(=NC(=O)C3CC3)SC3CS(=O)(=O)CC32)cc1 (stereo not drawn)	0.1	x	8	x	x
Cc1sc(NC(=O)C2CC=CCC2C(=O)O)c(C(=O)OC(C)C)c1C (stereo not drawn)	-2.5	15	-10	-14	-4%
O=C(CN1C(=O)C(=O)c2ccccc21)OCN1C(=O)c2ccccc2C1=O	-2.5	2	-2	x	5%
O=C(N/N=C/c1ccc(Cl)cc1)c1n[nH]c2c1CCCC2	-2.5	x	1	x	3%
Clc1cccc(OCCOCCN2CCNCC2)c1Cl	17	x	-8	x	x
COC(=O)CNC(c1ccccc1)c1cc(Br)ccc1NC(=O)OCc1ccccc1 (stereo not drawn)	7.8	-10	-4	-4	-3%
COc1ccc(C(=O)NNC2=Nc3cccc4cccc2c34)cc1	-2.6	1	1	x	u
FC(F)(F)C(F)(F)C(F)(F)c1nnc2ccc(N3CCOCC3)nn12	x	-3	-6	23	2%
O=C(Cn1ccc([N+](=O)[O-])n1)Nc1ccccn1	0.7	2	1	x	0%

Among those listed so far, these contain an NH in an aromatic ring:
SMILES	RecA intein inh	Arbovirus inh	Mtb betalactam	YopH PTP inh	Mtb H37Rv	others
COCCN(C(=O)CSc1ncccn1)c1c(N)n(Cc2ccccc2)c(=O)[nH]c1=O	3.9	x	-1	x	x
COc1ccccc1N1CCN(C(=O)Cn2c(=O)[nH]c3ccsc3c2=O)CC1	3.1	-3	-5	-10	-8%
O=C(N/N=C/c1ccc(Cl)cc1)c1n[nH]c2c1CCCC2	-2.5	x	1	x	3%

(listing goes on)
SMILES	RecA intein inh	Arbovirus inh	Mtb betalactam	YopH PTP inh	Mtb H37Rv	others
O=C(c1cccc(S(=O)(=O)N2CCc3ccccc32)c1)N1CCN(c2ccccn2)CC1	8.2	5	4	x	0%
CCOC(=O)C1=C(CN2CCN(C(=O)c3ccco3)CC2)NC(=O)NC1c1ccc(OC)cc1 (stereo not drawn)	0.5	x	0	x	x
CC1=CC(C)(C)N2C(=O)C3(C(C#N)=C(N)OC4=C3C(=O)CC(C)(C)C4)c3cc(C)cc1c32 (stereo not drawn)	5.5	9	-5	-17	7%
Cc1ccc(NC(=S)Nc2ccc(Br)cc2)cc1	-0.9	9	44	-21	5%
S=c1[nH]nc(-c2cc(-c3ccsc3)n[nH]2)n1-c1cccc2ccccc12	8.3	0	1	x	19%
CSc1cccc(NC(=S)N(CCC(C)C)C2CCN(C(C)=O)CC2)c1	4.1	6	-8	x	-7%
CSCC[C@H](NC(=O)[C@H]1CC[C@H](CNC(=O)[C@@H]2CCCN2)CC1)C(=O)O	1.6	x	-1	x	x
CC1(c2cccc3ccccc23)NC(=O)N(CC(=O)NC2CCS(=O)(=O)C2)C1=O (stereo not drawn)	-0.3	-1	-5	-5	2%
CCn1cc(C(=O)NC2CCCCCC2)c(=O)c2ccc(C)nc21	4.6	x	48	x	x
COc1ccccc1/C=C/c1nc(S(=O)(=O)c2ccccc2)c(N2CCC(C(N)=O)CC2)o1	-7.0	x	4	x	x
CC(Sc1nc2ccccc2c(=O)n1C)C(=O)NC1CCCCC1C (stereo not drawn)	-0.8	x	-4	x	x
COc1ccc(C(=O)COC(=O)CN2C(=O)C3C4CCC(C4)C3C2=O)cc1 (stereo not drawn)	-0.3	x	4	x	x
CC(C)COC(=O)N1CCCC1C(=O)Nc1nccs1 (stereo not drawn)	-2.0	3	-4	-66	1%
O=C(NCc1ccccc1)c1ccc(C(=O)N(C2CCCCC2)C2CCCCC2)cc1	-0.9	-18	2	9	12%
N=c1ncn(CC(O)CO)c2nc(N3CCOCC3)[nH]c12 (stereo not drawn)	-3.1	4	-5	-15	-2%
CC(C)Cn1c(N)c(C(=O)COC(=O)CCNS(=O)(=O)c2ccccc2)c(=O)n(C)c1=O	-1.9	x	-19	x	x
CCOC(=O)C1CCN(C(=O)COC(=O)CCOc2ccc(C)cc2)CC1	2.0	6	5	-22	1%
O=C(c1n[nH]c(=O)c2ccccc12)N1CCN(c2ccc(F)cc2)CC1	-1.5	0	10	-50	x
CC(NC(=O)c1ccccc1NS(=O)(=O)c1ccc(CCC(=O)O)cc1)c1ccccc1 (stereo not drawn)	1.2	x	-2	x	x
CCOC(=O)C1=C(N)Oc2cc(O)ccc2C1c1ccc(Br)cc1 (stereo not drawn)	2.7	x	3	x	x
Cc1c(NC(=O)/C(C#N)=C/c2ccc(-c3cccc(Cl)c3)o2)c(=O)n(-c2ccccc2)n1C	0.4	12	u	-16	27%
O=C(CSc1nnc(-c2ccccc2)n1-c1ccccc1)NCc1ccco1	0.1	3	2	-25	3%
O=C(Cn1c(=O)oc2ccccc21)Nc1n[nH]c(=S)s1	-1.3	x	-10	x	-6%
COc1ccccc1OCC(=O)NCCSCc1ccccc1Cl	-3.4	24	3	-15	4%
COc1ccc(C2=Nn3c(nnc3C3CCCCC3)SC2)cc1OC	1.0	-12	97	1	3%

Sorted by molecular weight (largest number first): part of the list above
SMILES	RecA intein inh	Arbovirus inh	Mtb betalactam	YopH PTP inh	Mtb H37Rv	others
CCOC(=O)C1=C(CN2CCN(C(=O)c3ccco3)CC2)NC(=O)NC1c1ccc(OC)cc1 (stereo not drawn)	0.5	x	0	x	x
CC(NC(=O)c1ccccc1NS(=O)(=O)c1ccc(CCC(=O)O)cc1)c1ccccc1 (stereo not drawn)	1.2	x	-2	x	x
CCn1cc(C(=O)NC2CCCCCC2)c(=O)c2ccc(C)nc21	4.6	x	48	x	x

The listing continues:
SMILES	RecA intein inh	Arbovirus inh	Mtb betalactam	YopH PTP inh	Mtb H37Rv	others
Brc1ccc2nc(CSc3ncn[nH]3)cn2c1	-0.6	6	42	-37	-1%
OCCn1c(-c2ccc3c(c2)OCO3)csc1=Nc1ccccc1	5.0	-6	-11	12	-6%
COc1ccc(NC(=S)N(CCN2CCOCC2)C2CCN(C(C)=O)CC2)cc1Cl	-0.5	7	-7	x	16%
O=C(Cc1ccccc1F)Nc1ccccc1N1CCCC1	-1.1	x	1	x	x
COc1ccc(NC(=O)c2ccc3c(c2)NC(=O)CS3)cc1S(=O)(=O)Nc1ccc(Br)cc1	4.2	-23	99	x	u
Cc1cccc(C(=O)NCCC(=O)Nc2ccc(F)c([N+](=O)[O-])c2)c1	0.3	x	1	x	x
Nc1cc(C(=O)O)ccc1N1CCCCCC1	-1.9	1	-2	3	-6%

Source: PubChem (several laboratories)

Some of the compounds tested. The share of hits here may be higher or lower than overall.
